HNF4A DNA FP = change in binding of human HNF4 alpha to DNA | P41235 | HNF4a-FITC DNA binding, fluorescence polarization, 1 h | activity change, % at 10 µM | hit rate 0.3% among 360,000 | AID 1224865; in the data active = activity change above about 30%, passing the limit was not always enough;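 also: controls were the assay level and a saturating level of protein; the project sought stronger binding though the title names inhibitors; some compounds called inactive have numbers as strong as hits; positive values seem to mean higher polarization but the record does not say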
Vif A3G = HIV-1 Vif–A3G interaction blockers – biochemical, TR-FRET, GST-Vif 1-94, biotin-A3G peptide, dose response retest, primary screen (AID 1117319) | TR-FRET GST-Vif / biotin-A3G peptide binding; higher % means a stronger effect; test concentration not given here; strong numbers were not always called active | inhibition, %; hits with a dose series show IC50 in µM | hit rate 0.57% among 260,000;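 active = above the screen mean plus three standard deviations and confirmed in dose response; inconclusive = results disagree or hit not tested in dose response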;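 also: Vif residues 1-94 fused to GST binding biotinylated APOBEC3G peptide 110-148; 0% = full assay without inhibitor and 100% = GST in place of GST-Vif; retest series ran down from 100 µM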
RanGTP-Impb inh = inhibitors of RanGTP-importin-beta interaction, primary screen, biochemical, FRET, CFP-Ran, YFP-importin-beta, homogeneous; cell-free CFP-Ran/YFP-importin-beta FRET ratio; inhibition, % (test concentration not listed); hit rate 1.1% among 300,000; AID 2216;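 active = most replicates above 15%; inconclusive = exactly half above 15%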;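 also: 0% = DMSO wells and 100% = Ran loaded with GDP instead of GTP; wells of about 40 µL received 100 nL stock; the first replicate is given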
LANA-H2B inh = blocks KSHV LANA binding to histone H2A/H2B; hit rate 0.6% among 320,000; inhibition, % (no concentration beside the values); Q9QR71; cell-free LANA-H2A/H2B peptide, fluorescence polarization; in the data active = inhibition mostly above about 10%, no sharp cut-off; inactive = mostly below about 6.7%;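 also: stock transfer was 7.5 nL into about 10 µL; 0% = median of vehicle wells and 100% = median of positive control wells; one replicate is shown; the record names a cut of 25% in any replicate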
Target sequence (Q9QR71 whole entry, looked up): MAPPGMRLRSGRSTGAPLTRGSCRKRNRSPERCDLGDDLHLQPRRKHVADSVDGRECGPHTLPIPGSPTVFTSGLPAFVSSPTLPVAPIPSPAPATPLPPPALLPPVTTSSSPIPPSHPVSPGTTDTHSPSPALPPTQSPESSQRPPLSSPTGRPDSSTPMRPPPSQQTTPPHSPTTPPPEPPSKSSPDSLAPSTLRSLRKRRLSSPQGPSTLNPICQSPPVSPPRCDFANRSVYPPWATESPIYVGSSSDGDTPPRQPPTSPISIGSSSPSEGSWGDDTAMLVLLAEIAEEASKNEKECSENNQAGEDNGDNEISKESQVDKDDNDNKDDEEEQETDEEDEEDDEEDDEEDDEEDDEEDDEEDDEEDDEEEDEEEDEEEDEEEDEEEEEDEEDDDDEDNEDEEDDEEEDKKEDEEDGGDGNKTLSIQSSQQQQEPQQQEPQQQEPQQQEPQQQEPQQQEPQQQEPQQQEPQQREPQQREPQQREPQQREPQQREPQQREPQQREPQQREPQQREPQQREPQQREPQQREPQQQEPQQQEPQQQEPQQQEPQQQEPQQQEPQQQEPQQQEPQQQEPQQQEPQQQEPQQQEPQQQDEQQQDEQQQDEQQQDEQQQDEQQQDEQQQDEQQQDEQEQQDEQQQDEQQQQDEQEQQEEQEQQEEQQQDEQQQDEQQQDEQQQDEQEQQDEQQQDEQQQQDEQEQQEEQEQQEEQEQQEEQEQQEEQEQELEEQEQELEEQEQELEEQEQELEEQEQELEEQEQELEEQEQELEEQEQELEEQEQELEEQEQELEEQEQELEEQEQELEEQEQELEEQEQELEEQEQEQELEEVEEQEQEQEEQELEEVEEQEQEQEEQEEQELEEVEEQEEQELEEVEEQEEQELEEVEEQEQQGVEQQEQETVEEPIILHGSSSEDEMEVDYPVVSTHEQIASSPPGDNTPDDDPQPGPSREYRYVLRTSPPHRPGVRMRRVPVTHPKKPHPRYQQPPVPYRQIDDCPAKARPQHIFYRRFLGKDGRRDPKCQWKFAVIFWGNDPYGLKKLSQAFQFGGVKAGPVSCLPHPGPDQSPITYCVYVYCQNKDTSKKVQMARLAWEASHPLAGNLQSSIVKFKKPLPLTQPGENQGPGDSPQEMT
Beta2AR agonist = agonists of human beta-2 adrenergic receptor inducing internalization | AID 504454 | Am2.2-beta2AR cells, FAP receptor internalization, flow cytometry; reference of the scale not given here | hit rate 0.43% among 340,000 | response, % (no concentration beside the values);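 active = response above a set limit, near 3 SD of response in nonfluorescent compounds, cut at about 42% in these data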;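 also: stock transfer was 100 nL into about 11 µL; a reference agonist was the positive control; negative values mostly stem from fluorescent compounds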
Calb FLC = affects C. albicans growth with fluconazole; C. albicans CaCi-2 (fluconazole-resistant clinical isolate) + fluconazole, Alamar Blue growth, 48 h; growth inhibition, % (no concentration beside the values); AID 1979; hit rate 0.57% among 300,000;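 active = most replicates above 75%; inconclusive = exactly half above 75%; inactive = most below 75%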;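 also: all wells also contain fluconazole at 8 µg/ml as a sub-toxic cotreatment; 0% = median of DMSO wells and 100% = median of geldanamycin control wells; wells of about 8 µL received 7.5 nL stock; the first replicate is given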
ALR inh = human ALR oxidase inhibition via reduced H2O2; purified ALR, DTT oxidation, H2O2 HRP-luminol luminescence; inhibition, % (no concentration beside the values); hit rate 3.8% among 290,000; AID 485317;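 active = mean and each replicate at 75% or more; inconclusive = only one of the two met; inactive = neither met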;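 also: stock transfer was 7.5 nL into about 7.5 µL; 0% = neutral wells and 100% = wells with inactivated enzyme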
* hit, by the source's call; ? = inconclusive; . = not tested or not shown.

SMILES | HNF4A DNA FP | Vif A3G | RanGTP-Impb inh | LANA-H2B inh | Beta2AR agonist | Calb FLC | ALR inh
COc1ccc2cnn(-c3ccccc3C)c(=O)c2c1OC | -1.6 | 9% | -3.4 | 0.8 | 2 | 2 | -7
CSc1ccccc1NC(=O)c1ccc(CN2CCOCC2)cc1 | -2.7 | 8% | 1.1 | 3.3 | -2 | -1 | -7
CCN(C(=O)c1cnc(NC(C)C)cc1C(F)(F)F)c1ccc(Cl)cc1 | -1.1 | 6% | -0.3 | -5.5 | 12 | 10 | 0
COc1ccc(NC(=O)C2CCN(S(=O)(=O)c3c(C)nn(C)c3C)CC2)cc1 | 4.9 | . | -0.4 | -1.5 | 12 | -4 | -3
Cc1ccc(OCC(=O)NCCCNC(=O)c2ccncc2)cc1C | -3.7 | . | 1.9 | 4.7 | -5 | -22 | -4
COc1ccc(CN(C(=O)CNC(=O)c2ccco2)C(C(=O)NC2CCCC2)c2ccco2)cc1 (configuration not stated) | -1.4 | 1% | 8.0 | 0.3 | -3 | 3 | -3
COc1ccc2[nH]c(C(=O)O)c(NS(=O)(=O)c3ccc(C)c(C)c3)c2c1 | 1.0 | . | 0.2 | -3.0 | -3 | . | 97*
O=C(O)COc1ccccc1/C=C1\SC(=S)N(/N=C/c2ccccc2O)C1=O | 5.3 | 18% | 5.3 | -2.1 | 3 | 13 | 66
CCC1(c2ccccc2)NC(=O)N(CC(=O)Nc2ccc(S(=O)(=O)Nc3ncccn3)cc2)C1=O (configuration not stated) | -4.9 | 2% | 3.2 | -1.0 | 2 | 1 | -7
CN(C(=S)NC(=O)C1CC1)c1ccc(O)cc1 | 1.3 | 21% | . | -0.2 | -6 | . | 97*
CCOC(=O)Cn1cncc1-c1ccc([N+](=O)[O-])cc1 | 1.8 | 6% | 0.5 | 4.3 | 5 | 5 | 97*
Cc1nnc(SCC(=O)Nc2cc(C(F)(F)F)ccc2Cl)n1C | 3.3 | . | ? | -5.8 | -8 | -2 | 3
Cc1ccc(Cn2ccc(NC(=O)c3cc(CC(C)C)on3)n2)cc1 | -0.9 | -2% | 4.4 | 2.6 | -6 | -4 | -1
CN(C)c1ccc(/C=C/C(=O)c2ccc3c(c2)OCO3)cc1 | 135 | 7% | . | . | -15 | . | 99*
CC(C)CNC1=C(C(=S)Nc2ccccc2)C(=O)CC(C)(C)C1 | 1.6 | . | 3.7 | 2.9 | -17 | 0 | -13
CNS(=O)(=O)c1cccc(C(=O)OCC(=O)Nc2ccc3ccccc3c2)c1 | -2.0 | 5% | . | 0.3 | 8 | . | .
CN(Cc1ccc(OC(F)F)cc1)C(=O)c1ccc2nccnc2c1 | -2.8 | ? | 1.4 | 7.3 | -2 | 4 | -9
Cc1cc(C(=O)Nc2cc(S(C)(=O)=O)ccc2Cl)c(C)o1 | 10 | 2% | . | 1.4 | -5 | . | -4
Cc1ccccc1NC(=O)CC1c2ccccc2CC(C)(C)N1C (configuration not stated) | -1.5 | -9% | -3.1 | -5.8 | -6 | -10 | -7
O=C(NC1CCC(O)CC1)c1ccc(-c2ccc([N+](=O)[O-])cc2)o1 (configuration not stated) | -9.5 | 24% | -1.6 | -16 | 1 | -1 | 53
CS(=O)(=O)N(CCc1ccccc1)CC(=O)NCc1ccccc1Cl | -1.6 | -1% | -2.8 | 2.7 | 3 | 1 | -1
COc1cc(-c2nn3c(-c4cccc(C)c4)nnc3s2)cc(OC)c1OC | 2.0 | -1% | -1.0 | 1.6 | 29 | 5 | 2
c1ccc(-c2nc3ccccn3c2NCc2ccc3c(c2)OCO3)cc1 | 1.4 | 7% | ? | -5.3 | -15 | -46 | 81*
CN(C)CCN1C(=O)C(=O)/C(=C(/O)c2ccc(F)cc2)C1c1ccccc1 (configuration not stated) | -2.6 | 2% | -1.2 | 0.2 | 1 | -1 | 2
NC1=NN=C(N2N=C(c3ccc(Br)cc3)CC2(O)C(F)(F)F)n2ncnc2C1 (configuration not stated) | -0.3 | -1% | 2.9 | 6.8 | -8 | -3 | 24

(further entries)
SMILES | HNF4A DNA FP | Vif A3G | RanGTP-Impb inh | LANA-H2B inh | Beta2AR agonist | Calb FLC | ALR inh
CCOc1ccc(NC(=O)CCNC(=O)c2ccc(Br)cc2)cc1 | 1.9 | 19% | -0.9 | -5.9 | -3 | -7 | -1
COc1cccc(NC(=O)c2ccc3c(c2)CCCC3)c1 | 1.4 | . | 3.7 | -7.5 | 4 | 30 | 0
CC(C)CN1C(=O)c2ccc(C(=O)Nc3ccccc3C(=O)O)cc2C1=O | 1.0 | 3% | ? | 2.0 | -1 | 18 | 81*
CCOC(=O)c1oc2ccccc2c1NC(=O)COc1cccc(OC)c1 | 3.0 | 29% | -1.7 | 3.0 | 5 | 0 | -4
Cc1ccc(CNS(=O)(=O)c2cc3c4c(c2)C(C)C(=O)N4CCC3)cc1 (configuration not stated) | -0.5 | -8% | 2.5 | 8.7 | 5 | 8 | -7
O=C(Cn1cc(C(=O)C2CC2)c2ccccc21)NCc1ccc2c(c1)OCO2 | 0.7 | -44% | -0.1 | 1.3 | -12 | -18 | -7
COC(=O)CCCNC(=O)c1ccc(S(=O)(=O)NCc2ccco2)cc1 | -0.4 | 2% | -1.4 | 2.6 | 5 | 5 | -3
CC1(C)CC(=O)c2cc(C(=O)NCc3ccco3)c(=O)n(-c3ccccc3)c2C1 | -3.2 | 4% | -1.9 | -2.0 | -8 | . | -2
COC(=O)c1cc2c(C(F)(F)F)nn(C)c2s1 | -1.4 | -11% | -3.7 | 3.2 | 2 | -9 | 0
CCC(NC(=O)CCCc1ccccc1)c1ccccc1 (configuration not stated) | -3.3 | 0% | -4.3 | 1.0 | -3 | -1 | -2
Cc1cccc(NC(=O)c2cc(NC(=O)CCCC(=O)O)ccc2Cl)n1 | -0.2 | 2% | -0.6 | -2.2 | -6 | 1 | 0
C=CCn1c(=O)c(C(=O)Nc2ncccc2O)c(O)c2ccccc21 | -1.4 | 2% | -0.5 | -0.6 | -10 | 5 | 7
CC1CCCCC1NC(=O)CCCc1nc2ccccc2c(=O)[nH]1 (configuration not stated) | 5.0 | -7% | -1.8 | . | 10 | 10 | .
CCOc1ccc(CC(=O)Nc2ccc(S(=O)(=O)Nc3cc(C)on3)cc2)cc1OCC | 0.0 | 3% | ? | -6.2 | 5 | 15 | 1
O=C(/C=C/c1cccc([N+](=O)[O-])c1)N1CCN(c2ccccc2F)CC1 | 5.2 | ? | -0.1 | -1.8 | -1 | -3 | -2
O=C(Nc1nc2ccc(C(=O)N3CCCCC3)cc2s1)C1CCCCC1 | 0.6 | 3% | 0.1 | 2.1 | 20 | 35 | 9
Cc1cccc(N2C(=O)CC(N3CCN(Cc4ccc(Cl)cc4)CC3)C2=O)c1 (configuration not stated) | 2.9 | 0% | 6.2 | 1.0 | 2 | -8 | -5
CCC(=O)N=c1ccn(C2=Nc3ccccc3NC2=C(C#N)C#N)cc1 | 3.4 | 5% | -5.0 | -2.3 | -6 | -2 | -2
CCCCC1=CC2=C(c3ccco3)C(=O)C(C)(OC(=O)c3ccc(OC)cc3)C(=O)C2=CN1CCCOC(C)C (configuration not stated) | 0.6 | . | -1.0 | -2.2 | -6 | 20 | .
CCN(CC)S(=O)(=O)c1ccc(C)c(NC(=O)CNc2cccc(S(=O)(=O)N3CCCC3)c2)c1 | 2.6 | -4% | 6.3 | 2.3 | 0 | 0 | .
O=[N+]([O-])c1cc2c(cc1/C=N\NS(=O)(=O)c1ccccc1)OCO2 | -2.2 | 15% | 1.9 | 2.0 | 3 | -18 | 0
CCC(=O)N1CCc2cc(Br)cc(S(=O)(=O)N3CCCCC3CC)c21 (configuration not stated) | 1.4 | . | 7.6 | 5.9 | -22 | ? | -4
COc1cc(CCCN2C(=O)C(=O)NC[C@@H]2Cc2ccc(O)cc2)cc(OC)c1OC | -0.8 | . | 0.5 | -2.3 | 6 | -2 | -4
CN(C)c1ccc(/C=N/N2CCN(c3ccccn3)CC2)cc1 | 5.2 | 6% | 6.0 | 2.1 | -4 | -3 | 25
Cc1nccc2oc(=O)c(NC(=O)c3ccc(Cl)cc3)cc12 | 0.7 | 1% | 2.3 | 6.1 | -16 | 15 | 14

Single records (already shown). Order of screens: HNF4A DNA FP	Vif A3G	RanGTP-Impb inh	LANA-H2B inh	Beta2AR agonist	Calb FLC	ALR inh
CCC(=O)N1CCc2cc(Br)cc(S(=O)(=O)N3CCCCC3CC)c21 (configuration not stated) across the screens: 1.4	.	7.6	5.9	-22	?	-4
CC1CCCCC1NC(=O)CCCc1nc2ccccc2c(=O)[nH]1 (configuration not stated) across the screens: 5.0	-7%	-1.8	.	10	10	.
O=C(/C=C/c1cccc([N+](=O)[O-])c1)N1CCN(c2ccccc2F)CC1 across the screens: 5.2	?	-0.1	-1.8	-1	-3	-2
O=[N+]([O-])c1cc2c(cc1/C=N\NS(=O)(=O)c1ccccc1)OCO2 across the screens: -2.2	15%	1.9	2.0	3	-18	0

The list continues:
SMILES | HNF4A DNA FP | Vif A3G | RanGTP-Impb inh | LANA-H2B inh | Beta2AR agonist | Calb FLC | ALR inh
O=C(N/N=C\c1ccc2c(c1)OCO2)c1ccco1 | 1.0 | . | -5.7 | 5.0 | -7 | 0 | 49
O=C(c1ccccc1)N1CCN(c2ccc(NCc3ccc4c(c3)OCO4)cc2)CC1 | 22 | 22% | 4.4 | 1.2 | 0 | -22 | 89*
CN1C(=O)/C(=C/c2ccccc2OCc2cccc(F)c2)N(C)C1=S | -5.5 | 1% | 0.8 | 3.7 | -4 | 1 | -9
COc1cccc(NC(=O)COC(=O)CC(NC(N)=O)c2ccc(Cl)cc2)c1 (configuration not stated) | -3.6 | 12% | 9.0 | 0.9 | -4 | -7 | -2
COc1ccc(Cl)cc1NC(=O)CN1C(=O)CSC1=O | 2.4 | 8% | 0.6 | 5.0 | -1 | -10 | 5
COc1ccc(N(C(=O)CCl)C(C(=O)NC2CCCCC2)c2cccnc2)cc1 (configuration not stated) | -3.8 | . | 5.4 | 2.3 | 18 | -17 | 1
COc1ccc(-n2nc(C(=O)Nc3ccc4c(c3)OCO4)c3ccccc3c2=O)c(OC)c1 | 4.0 | 4% | . | -1.0 | 16 | . | -6
Cc1cc2occ(CC(=O)Nc3nnc(C4CC4)s3)c2cc1C | 0.1 | -2% | . | 0.2 | -9 | . | -1
Cn1c(CC(=O)Nc2ccc(Cl)c(Cl)c2)nnc1SCC(=O)NCc1ccccc1 | -2.9 | -9% | 0.1 | -6.1 | -3 | -5 | 0
COc1ccc(C(=O)c2ccsc2N)cc1 | -58 | 14% | 3.5 | -2.7 | 4 | 3 | 38
Cc1ccc(C(=O)c2c(NC(=O)c3cccnc3)sc3c2CCCC3)cc1 | 4.3 | -6% | 1.0 | -3.2 | 0 | 22 | 95*
O=C(Nc1nc(-c2cccnc2)cs1)c1ccccc1[N+](=O)[O-] | 4.1 | -3% | 18* | 1.8 | 0 | -13 | -2
N/C(=N\OC(=O)c1ccccc1)c1cccnc1 | -0.3 | 4% | -2.5 | -17 | -2 | -3 | -2
COc1ccc2c(CN(C)c3ccccc3)cc(=O)oc2c1 | 3.5 | 6% | -4.6 | . | -4 | 21 | .
Cc1ccnc(NC(=O)C(C)N2C(=O)c3ccccc3S2(=O)=O)c1 (configuration not stated) | 2.2 | 2% | -6.3 | 3.2 | -2 | -10 | 0
COc1ccc(NC(=O)Cn2cnc3c(cnn3-c3ccc(C)c(C)c3)c2=O)c(OC)c1 | 1.5 | -3% | 8.2 | 3.3 | -6 | -1 | -3
COc1ccccc1C(=O)NCCC(=O)NCC(c1ccco1)N1CCCCC1 (configuration not stated) | -1.1 | -8% | 2.6 | 1.2 | -19 | -8 | -1
COc1cc(OC)cc(C(=O)NNC(=O)CCCOc2ccccc2)c1 | -4.8 | . | . | 0.6 | 0 | . | .

Screening data (PubChem BioAssay)

Random draw from the library, and some 6.3% of all compounds hit somewhere here.
